Screening data deposited in PubChem by several laboratories.
Bead autofluor: counter-screen for toxin protease inhibitors: compound fluorescence | AID 624483 | hit rate 3.1% among 360,000 | compound autofluorescence counterscreen, microsphere flow cytometry; stronger effect = higher value | fluorescence intensity (concentration not given with the values);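 active = at least 3 SD above the mean of all compounds, about 16000 in these data; inconclusive = too few beads counted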;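 note: 100 nL of 1 mM stock went into each well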
BJeLR viability: MLPCN primary cell-based screen for lethality selective to Ras in HRASV12 cells | BJeLR (HRASV12) viability, CellTiter-Glo ATP luminescence, 48 h; reference of the scale not given here | inhibition, % (no concentration beside the values) | hit rate 0.17% among 300,000;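 active = replicate mean above 50%; inconclusive = above 50% but judged a plate artefact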;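 note: 50 nL library stock added to about 25 µL; numbers are from one replicate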
Mtb hypoxia inh: PubChem AID 1159583; M. tuberculosis hypoxia-regulated fluorescent reporter, fluorescence; hit rate 0.1% among 300,000; fluorescence inhibition, % (test concentration not listed);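 active = 35 to 45% if threefold the growth effect, above 45% if 1.5-fold the growth effect; inactive = the rest, general growth blockers included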;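 note: wells of about 50 µL received 100 nL stock; 0% = vehicle wells and 100% = reference inhibitor wells; whole bacteria with a GFP reporter of the hypoxia response; strong numbers were not always called active; many hits fall short of the cut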
PrP UTR inh: inhibition of PrP 5' UTR reporter expression; cell-based PrP 5' UTR mRNA reporter, plate reader; inhibition, % (no concentration beside the values); hit rate 0.35% among 340,000;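 active = every replicate at 50% or more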;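 note: 0 = median of the neutral control wells; tested in H4 reporter cells; numbers are from one replicate; inactives centre near -14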
RN4220 kill: growth inhibition of S. aureus RN4220, primary screen, OD600 | 16 h | inhibition, % (test concentration not listed) | hit rate 0.33% among 330,000;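 active = z-score of -3 or lower and OD600 up to 0.18 on both plates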;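 note: plate controls were untreated cells for no effect and reference antibiotic for full effect; stock transfer was 100 nL into about 80 µL; one replicate is shown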
ugtP null kill: growth inhibition of ugtP-null S. aureus, primary screen, RN4220 ugtP deletion, OD600. 16 h; some inactives read as strong as hits. growth inhibition, % (no concentration beside the values). hit rate 0.54% among 330,000;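 active = z-score under -3 and OD600 up to 0.15 on both plates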;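 note: plate controls were untreated wells for no effect and antibiotic for full effect; wells of about 80 µL received 100 nL stock; the first replicate is given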
Mtb hypoxia inh growth: further read-out of Mtb hypoxia inh, marked with its call; growth inhibition, %; measured here: M. tuberculosis growth (absorbance);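 0% = vehicle and 100% = reference antibiotic; read after six days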
* = called active by the depositor; u = inconclusive; x = no result given.

SMILES,Bead autofluor,BJeLR viability,Mtb hypoxia inh,Mtb hypoxia inh growth,PrP UTR inh,RN4220 kill,ugtP null kill
COC(=O)Cc1ccc(NC(=S)NCc2ccco2)cc1,3625,5,13,10,-16,6.3,9
CC(C)N(C(=S)NCc1ccccc1)c1ccccc1,2492,-4,4,2,-14,4.0,3
O=C(O)CC1S/C(=N/N=C/c2ccc(-c3ccc(Cl)c([N+](=O)[O-])c3)o2)NC1=O (stereo not drawn),4631,-1,x,x,-5,x,x
COc1ccc2c(c1)c(C(=O)N/N=C/c1ccc(O)c(O)c1)c(C)n2C,6883,-1,x,x,-11,x,x
CC1C(=O)N2CCCc3cc(S(=O)(=O)N4CCN(c5ccccc5F)CC4)cc1c32 (stereo not drawn),5237,6,-2,5,-18,1.5,3
Cn1c(=O)[nH]c2cc(Cl)cnc21,4690,-1,x,x,-1,4.2,5
CSc1ccc(C(=O)C2CCCN(CCCn3cccn3)C2)cc1 (stereo not drawn),2175,-7,10,4,-9,0.9,11
CCCCc1ccc(C(C)=NNc2cc(N3CCOCC3)nc(C)n2)cc1,x,x,1,-6,x,-6.6,-23
O=c1cc(N2CCCCC2)[nH]c(=O)n1C1CCCCC1,4227,7,4,3,-4,5.8,7
COc1ccc(OC)c(Nc2nc(-c3c(C)nc4ncccn34)cs2)c1,4091,4,-16,9,-18,2.3,-1
C=C(C)c1cccc(C(C)(C)NC(=O)NCc2ccc(OC)cc2)c1,2555,-16,9,9,-17,2.1,-4
O=C1N=C(N2CCOCC2)S/C1=C\c1ccccc1OS(=O)(=O)c1ccccc1,3781,3,9,-3,-5,5.8,-4

Further records:
SMILES,Bead autofluor,BJeLR viability,Mtb hypoxia inh,Mtb hypoxia inh growth,PrP UTR inh,RN4220 kill,ugtP null kill
Cc1ccccc1CCN(CC(=O)NCc1ccc(F)cc1)C(=O)c1csnn1,3857,-18,13,4,-8,2.2,2
Cc1ccc(Nc2c([N+](=O)[O-])ccc3c2=NC2(CCCCC2)N=3)cc1,11126,2,10,6,-33,1.4,4
CCOC(=O)C1C2COc3ccc(Br)cc3C2N2C(=O)C(C)NC(=O)[C@@]12C (stereo partly drawn),x,x,10,12,x,8.4,-13
O=C(C1CC1)N1CCN=C1SCc1cccc(F)c1,5972,x,x,x,-14,0.6,1
COc1ccc2oc(C(=O)OC(C)C(=O)N3CCC(C)CC3)c(C)c2c1 (stereo not drawn),2971,x,2,-2,-16,2.9,0
O=C(NNC(=S)NC(=O)c1cccc([N+](=O)[O-])c1)c1ccc(O)cc1,2834,5,11,6,-5,7.2,9
COc1cccc(OCc2cc(C(=O)NC3CCOCC3)no2)c1,4516,5,-7,-9,-32,-1.3,1
COc1ccc(-c2c(=O)n(OCc3ccccc3[N+](=O)[O-])c3ccccc3[n+]2[O-])c(OC)c1,4705,3,-6,-4,-6,9.5,6
CCOc1cc(C(=O)Nc2ncn[nH]2)cc(OCC)c1OCC,4727,-2,-5,3,4,2.7,3
CC1CCN(C(=O)C(=O)Nc2sc3c(c2C(=O)O)CC(C)(C)OC3)CC1,6018,6,-1,1,-20,-1.4,12
CCOc1ccccc1NC(=O)CN(c1ccc(OC)cc1)S(=O)(=O)c1c(C)[nH]c(=O)[nH]c1=O,5836,-4,x,x,-18,x,x
Cc1ccc2nc(/C(C#N)=N/O)[nH]c2c1,3888,-5,x,x,-19,x,x

More results:
SMILES,Bead autofluor,BJeLR viability,Mtb hypoxia inh,Mtb hypoxia inh growth,PrP UTR inh,RN4220 kill,ugtP null kill
Oc1c(C(c2ccccc2)N2CCN(Cc3ccccc3)CC2)sc2ncnn12 (stereo not drawn),4554,4,6,-6,6,8.3,10
C#CCNC(=O)C1=C[C@@H](c2ccc(Br)cc2)C[C@@H](OCc2ccc(CO)cc2)O1,4135,-1,x,x,-37,x,x
Cc1cc(C)cc(-n2c(C)cc(C(=O)CSc3nnnn3C)c2C)c1,4344,-8,x,x,-20,-1.4,12
COCCn1c(SCC(=O)N2CCc3ccccc3C2)nc2cc(Cl)ccc2c1=O,2001,6,8,12,-8,-3.3,-11
CC(C)(C)OC(=O)N1CCC(c2cc(=O)n3[nH]c(-c4ccc(Cl)cc4)cc3n2)CC1,5213,-1,5,7,-40,5.8,9
CCOc1ccc(C(=O)Nc2nnc(S(=O)(=O)Nc3ccccc3C)s2)cc1,5930,5,3,8,-6,29,45
O=C(NC1CCCCC1)C1CCC(CNS(=O)(=O)c2ccccc2)CC1 (stereo not drawn),3947,-1,-3,1,-20,0.9,2
CN1C(=O)C(=Cc2ccc(N3CCCCCC3)o2)C(=O)N(C)C1=S,14036,x,x,x,-61,2.5,-3
COc1cccc(-c2nc(CS(=O)(=O)CC(=O)N3CCN(C)CC3)c(C)o2)c1,5657,-4,8,1,-18,-0.2,9
CC(C)C(=O)c1c(C(C)C)nn2ccccc12,5721,-20,2,9,32,2.3,-4
O=C(NCc1ccc(C(F)(F)F)cc1)C1CC(c2ccccc2C(F)(F)F)=NO1 (stereo not drawn),4096,-3,-11,-6,-8,-1.4,-1
CCOC(=O)c1c(/N=C/c2c(O)n(-c3ccccc3F)c(=S)[nH]c2=O)sc2c1CCCC2,3294,-3,4,6,-16,-18,-1

Continuation.
SMILES,Bead autofluor,BJeLR viability,Mtb hypoxia inh,Mtb hypoxia inh growth,PrP UTR inh,RN4220 kill,ugtP null kill
Cc1csc(NC(=O)CSc2nnc(NC(=O)NC(C)(C)C)s2)n1,u,-11,4,1,-12,4.1,-7
CC(=O)Nc1ccc(N(C(=O)CNC(=O)c2ccco2)C(C(=O)NCC2CCCO2)c2ccccc2)cc1 (stereo not drawn),4280,-16,-2,2,-19,6.1,9
COc1ccc(C(=O)NC2CCCCC2)cc1S(=O)(=O)N1CCOCC1,4222,-6,0,-3,-24,1.9,5
O=[N+]([O-])c1ccc(N2CCCCC2)s1,2523,3,x,x,-9,6.2,-1
O=C(Nc1ccc(NS(=O)(=O)c2ccccc2)cc1)c1cccnc1,2484,3,0,2,-18,1.1,2
O=c1cc(CSc2nnc(Nc3ccccc3F)s2)nc2sccn12,4492,7,-1,4,-6,13,2
Cc1cc(C)cc(C(=O)NCC(=O)OCc2nc(N)nc(Nc3ccccc3C)n2)c1,8455,x,-2,0,-25,-0.2,2
COc1ccc(CC(=O)Nc2nnc(SCC(=O)NCc3ccco3)s2)cc1OC,4170,2,9,-7,-13,4.4,-1
O=C(NCCc1cccc(F)c1)C1CCN(S(=O)(=O)c2ccc(F)cc2)CC1,3838,-7,3,3,-15,1.0,9
CN(n1cnc2ccccc2c1=O)S(C)(=O)=O,4157,-3,5,6,-6,5.9,8
CCCc1nnc(NC(=O)Nc2ccccc2OC)s1,1984,0,6,2,-46,6.1,0
CC(C)Cc1c(O)nc(SCC(=O)Nc2ccc3c(c2)CCC3)[nH]c1=O,9236,7,13,8,-30,33,0

Remaining list, next part
SMILES,Bead autofluor,BJeLR viability,Mtb hypoxia inh,Mtb hypoxia inh growth,PrP UTR inh,RN4220 kill,ugtP null kill
O=C(C1CCN(Cc2cccs2)CC1)N1CCN(Cc2ccc3c(c2)OCO3)CC1,4693,2,9,8,-13,4.5,7
COc1ccccc1NC(=S)N(CCCN1CCOCC1)Cc1cn(C)c2ccccc12,1984,5,5,6,-5,3.1,7
O=C(CSCC(=O)N1CCCCC1)OCC(=O)c1c[nH]c2ccccc12,16086,5,6,6,-8,6.7,11
CCc1c(O)nc(SCC(=O)N2CCCCC2)n(-c2ccccc2C)c1=O,11141,-2,6,3,-8,-0.5,2
COc1ccccc1CC(=O)N1CCN(c2ccc([N+](=O)[O-])cc2)CC1,4604,14,10,7,-12,-0.4,3
Cc1ccc(N=C2S/C(=C/c3cccc(OCC(=O)O)c3)C(=O)N2C)cc1C,2993,2,5,0,3,10,-10
O=S1(=O)NC[C@]23CC(c4ccc(F)cc4)C(CC21)O3 (stereo partly drawn),x,x,21,17,x,4.0,1
Cc1ccc(NC(=O)C(=O)NCCOc2ccccc2Cl)cc1,1972,-3,3,9,-9,3.3,5
CS(=O)(=O)N1CCC(C(=O)Nc2ccc3c(c2)OCCO3)CC1,12947,3,-5,0,-11,7.3,1
Cc1ccc(OCCOCCOc2ccc(Br)cc2/C=N\NC(=O)c2ccncc2)cc1,2149,-6,x,x,-18,x,x
CC(=O)c1ccc(N2CCN(C(=O)C3CCN(S(=O)(=O)Cc4ccccc4)CC3)CC2)cc1,4943,6,x,x,-11,1.1,-5
Cn1c(C=NO)nc2ccccc21,x,x,4,2,x,8.2,3

One compound at a time, from the list above:
Cc1ccc(OCCOCCOc2ccc(Br)cc2/C=N\NC(=O)c2ccncc2)cc1 as listed: Bead autofluor = 2149; BJeLR viability = -6; Mtb hypoxia inh = x; Mtb hypoxia inh growth = x; PrP UTR inh = -18; RN4220 kill = x; ugtP null kill = x
CC1CCN(C(=O)C(=O)Nc2sc3c(c2C(=O)O)CC(C)(C)OC3)CC1 as listed: Bead autofluor = 6018; BJeLR viability = 6; Mtb hypoxia inh = -1; Mtb hypoxia inh growth = 1; PrP UTR inh = -20; RN4220 kill = -1.4; ugtP null kill = 12
COc1ccc2oc(C(=O)OC(C)C(=O)N3CCC(C)CC3)c(C)c2c1 (stereo not drawn) as listed: Bead autofluor = 2971; BJeLR viability = x; Mtb hypoxia inh = 2; Mtb hypoxia inh growth = -2; PrP UTR inh = -16; RN4220 kill = 2.9; ugtP null kill = 0

More entries
SMILES,Bead autofluor,BJeLR viability,Mtb hypoxia inh,Mtb hypoxia inh growth,PrP UTR inh,RN4220 kill,ugtP null kill
CCCc1[nH]nc2c1C1(C(=O)N(C(C)C)c3ccccc31)C(C#N)=C(N)O2 (stereo not drawn),12464,3,2,6,-11,29,-4
COCc1c(C(=O)N/N=C(\C)c2ccncc2)nnn1-c1nonc1N,3563,6,x,x,-7,x,x
COC(=O)c1ccccc1NC(=O)C1=CC(c2cccs2)=NS(=O)(=O)N1C,5058,4,0,2,-24,0.1,1
COc1ccc(NC(=O)c2ccccc2OCc2ccc(F)cc2)c(OC)c1,5241,-15,13,19,-13,-4.9,1
Cc1cccc(CC(=O)N2CCOCC2)c1,2971,6,9,-8,-26,0.9,11
CCN(CC)CCn1c2c(c(SCC(=O)Nc3ccc(C(C)C)cc3)nc1=O)CCCC2,u,18,2,2,2,-0.6,2
O=C(/C=C/c1ccccc1[N+](=O)[O-])NCCN1C(=O)S/C(=C\c2ccc(F)cc2)C1=O,4202,3,-5,1,-50,2.7,3
N#CCCSCc1ccc2oc(C(=O)O)cc2c1,12528,-3,6,5,-5,-0.3,4
COc1ccc(N2CCN(CCNC(=O)Nc3ccc(C)c(Cl)c3)CC2)cc1,4247,-6,-11,3,-45,-0.1,2
O=C(Nc1ccc(N2CCCC2)cc1)c1ccc([N+](=O)[O-])cc1Cl,2467,6,-1,10,-26,19,11
COc1ccc(OC)c(NC(=O)C2CC(=O)N(CCc3ccccc3)C2)c1 (stereo not drawn),5099,5,8,2,-3,3.2,3
CCCN(Cc1ccco1)S(=O)(=O)c1ccc(OC)c(OC)c1,5401,-8,-3,12,4,0.7,1
S=c1[nH]nc(-c2ccc(Cl)cc2)n1CCCN1CCOCC1,4371,-6,15,2,-36,6.0,1
COc1cccc(NCc2cc(=O)oc3cc(C)c(O)cc23)c1,3673,-4,-2,6,-26,97*,100*
